Source: PubChem BioAssay (Fisher Drug Discovery Resource Center)
NPYLR7 agonist = activates Aedes aegypti NPYLR7 receptor; HEK293T NPYLR7/Galpha15, GCaMP6s calcium fluorescence; AID 1259423; hit rate 0.15% among 270,000; activation, % at 10 µM; in the data active = activation above about 40%;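 also: 0% = vehicle and 100% = reference agonist at the receptor; some compounds past the cut are filed as inactive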
NPYLR7 agonist max-min = further read-out of NPYLR7 agonist, marked with its call; activation, %; measured here: Max-Min RFU normalised activation; some inactives read as strong as hits;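 span of the calcium signal over five minutes; 0% = vehicle and 100% = native peptide agonist; compound fluorescence can raise it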
* hit, by the source's call; & = joins results of further samples.

SMILES	NPYLR7 agonist	NPYLR7 agonist max-min
COc1ccc(C(=O)N2CCN(C(C(=O)Nc3ccc(F)cc3F)C3CCCC3)CC2)cc1 (stereo not given)	4	2
O=S(=O)(NCc1ccccn1)c1ccccc1	-4	-5
CN1C(=O)CC(C(=O)O)SC1=Nc1ccc(I)cc1 (stereo not given)	6	7
CN(Cc1ccccc1)C1CCCN(Cc2ccc(Oc3ncccn3)cc2)C1 (stereo not given)	1	-1
Cc1ccc(C(CC(=O)N2CCN(c3cccc(C(F)(F)F)c3)CC2)c2c[nH]c3ccccc23)c(C)c1 (stereo not given)	6	18
Cc1oc(-c2ccc(C(F)(F)F)cc2)nc1CN(C)Cc1ccc2nccnc2c1	8	8
CC(NC(=O)CSc1nnc(-c2ccc(Br)cc2)o1)C12CC3CC(CC(C3)C1)C2 (stereo not given)	6	0
CN(C)C(=O)n1nnnc1Cc1ccc(-c2ccccc2)cc1	-13	-16
Cc1cccc(N2CC(O)(c3cccs3)[N+]3=C2CCCCC3)c1 (stereo not given)	-3	-3
CC(=O)c1ccc(OCC(O)CN2CCC(CN3C(=O)c4cccc5cccc(c45)C3=O)CC2)cc1 (stereo not given)	27	38
CC1(C)COC(C(C)(C)CN(Cc2ccc(F)cc2)C2CC2)OC1	2	1
CCc1nc2n(n1)C(=O)C(C(c1cccs1)N1CCc3ccccc3C1)S2 (stereo not given)	-3	-8
COc1cccc(CSc2nnc(CNC(=O)Nc3ccc(C)cc3C)n2-c2ccc([N+](=O)[O-])cc2)c1	14	11
O=C(CC1CSc2nccc(=O)n21)NCCC(c1ccccc1)c1ccccc1 (stereo not given)	-3	-2
Cc1ccc(NC(=O)c2cc3c(C(F)(F)F)cc(=O)[nH]c3o2)c(Cl)c1	4	1
S=C(Nc1cccc(Cl)c1)Nc1ccc2cn[nH]c2c1	-3	-13
S=C(NC1COc2ccccc21)NC1CC2CCC1C2 (stereo not given)	3	1
COc1c[nH]c(C(=O)N[C@@H]2CC[C@@H](N)C2)cc1=O	-4	-7
COc1ccc(-c2nc3cc(C)ccn3c2NC(=O)c2cc(OC)cc(OC)c2)cc1	1	10
COc1ccc(-n2ccnc2CN2CCCC(CNC(=O)c3ccc4c(c3)OCO4)C2)cc1 (stereo not given)	4	8
Cc1nn(C)c(Cl)c1S(=O)(=O)N1CCN(CC(OCc2ccc(C(F)(F)F)cc2)c2ccc(Cl)cc2)CC1 (stereo not given)	27	15
CC(=O)N(C(C)=O)C1=C(C#N)C(c2ccccc2Cl)c2c(ccc3ccccc23)O1 (stereo not given)	-8	-16
COCc1c(Br)c(C)nc(OCC(=O)N/N=C\c2ccc(Oc3ccc([N+](=O)[O-])cc3[N+](=O)[O-])cc2)c1C#N	4	9
Cc1c(C(=O)N2CCN(c3cccc(O)c3)CC2)ncn1Cc1ccc(Cl)cc1	5	1
Cc1cnc2n(c1=O)C(CC(=O)N1CCOCC1)CS2 (stereo not given)	3	1
CCc1nc2n(n1)C(=O)C(C(c1ccc(F)cc1)N1CCC(O)CC1)S2 (stereo not given)	-3	-9
Cc1cn2cc(NC(=O)Cc3ccc(S(N)(=O)=O)cc3)ccc2n1	9	4
CCSc1nc2c(c(=O)[nH]1)C(C(C)C)C(C#N)C(=N)O2 (stereo not given)	3	1
CC(C)C(=O)N(CCN(C)C)Cc1csc(COc2ccccc2)n1	2	11
C[C@@H]1C[C@H]2[C@@H]3CCC4=CC(=O)C=C[C@]4(C)[C@@]3(F)[C@@H](O)C[C@]2(C)[C@H]1C(=O)CO	-3	-6
CCCCCc1ccc(C(=O)Nc2ccc(N3CCc4ccccc4C3)c(C(=O)NCC3CCCO3)c2)cc1 (stereo not given)	-1	5
C=CCN(CC(=O)N(CCc1ccccc1)Cc1ccc(C)o1)C(C)C(=O)OC (stereo not given)	-4	-1
Cc1ccc(S(=O)(=O)N/N=C\C=C\c2ccc(N(C)C)cc2)cc1[N+](=O)[O-]	-12	-19
CN(Cc1cc(C(C)(C)C)n[nH]1)C(=O)c1cn2c3c(cccc3c1=O)CC2	10	6
CCN1C(=O)NC(c2ccc(Cl)cc2Cl)C2=C1CN(CCC(=O)O)C2=O (stereo not given)	-12	-11
Cc1cc(Br)c(O)c(C(=O)Nc2ccccc2CN(C)C)c1	2	8
CCCn1c(CCC(=O)Nc2nccs2)nc2cc(S(=O)(=O)N3CCOCC3)ccc21	-15	-15
CC(=O)OC(C(=O)N1CC(=O)N2CCc3cc(C)ccc3C2C1)c1ccccc1 (stereo not given)	1	-2
N#Cc1ccc(C(=O)Nc2ccccc2N2CCCCCC2)cc1	1	0
COC(=O)c1ccccc1C(=O)N(Cc1cccnc1)c1nc2ccc(F)cc2s1	-14	-9
c1coc(-c2ncc(C3NCCc4[nH]cnc43)cn2)c1 (stereo not given)	14	10
CCCCCn1c(=O)c2c(nc3n2CCN3c2ccc(Cl)cc2)n(C)c1=O	10	9
COc1cc(C(=O)N2CC[C@@H](c3sccc3C)[C@H](O)C2)nc(OC)n1	3	-1
CC(NC(=O)C1CCN(CCCOc2ccccc2)CC1)c1ccccc1 (stereo not given)	-2	-9
CC(C)COc1nc(-c2ccccc2F)n(-c2ccc(NC(=O)Nc3ccc(F)cc3F)cc2)n1	-23	-22
CCC(C)c1nn2c(=O)c(NC(=O)c3ccccc3C)cnc2s1 (stereo not given)	2	2
CCc1c(C)nc(-n2nc(C)cc2NC(=O)c2ccc(C(F)(F)F)cc2)[nH]c1=O	10	7
c1ccc(-c2ccc(CNC3CCC4(CCNCC4)CC3)s2)nc1	12	8

Record cards, from the list above:
`CC(C)COc1nc(-c2ccccc2F)n(-c2ccc(NC(=O)Nc3ccc(F)cc3F)cc2)n1` reads NPYLR7 agonist = -23; NPYLR7 agonist max-min = -22
`CCCn1c(CCC(=O)Nc2nccs2)nc2cc(S(=O)(=O)N3CCOCC3)ccc21` reads NPYLR7 agonist = -15; NPYLR7 agonist max-min = -15

New compounds follow.
SMILES	NPYLR7 agonist	NPYLR7 agonist max-min
Oc1oc(-c2ccc(F)cc2)nc1C1=NCCCCC1	4	4
CSCC(=O)N1CCC(N2CCC(C(=O)NCCc3ccccc3)CC2)CC1	5	2
CCCc1nc2c(C)cc(-c3nc4ccccc4n3C)cc2n1Cc1ccc(-c2ccccc2C(=O)O)cc1	-7&0&-10	-19&-5&-12
CCC(CCC(C)[C@H]1CCC2C3CC=C4C[C@@H](O)CC[C@]4(C)C3CC[C@@]21C)C(C)C (stereo not given in full)	-2	-11
C=CCn1c(SCC(=O)N(C)C)nc2sc3c(c2c1=O)CCCCC3	1	-1
CSc1cccc(NC(=O)CSc2nnc(C)s2)c1	9	6
CC(O)CN1CCN(C(=O)c2ccnc(N3CCCCC3C)c2)CC1 (stereo not given)	7	5
COc1cccc(N=Nc2c(C)[nH]n(-c3nc(-c4cccc([N+](=O)[O-])c4)cs3)c2=O)c1	3	-2
O=C(C1CC2(CCNCC2)CN1)N1CCCN(CCCc2ccccc2)CC1 (stereo not given)	5	2
CCc1nc2ccc(C(=O)Nc3ccc4c(c3)CCN4C(C)=O)cn2c1N(CC)Cc1ccc(OC)c(OC)c1	5	11
Cc1cccc(CSc2nc(=O)[nH]c3c2CCC3)c1	-3	-10
CC(C)N1C(=O)C(=C2C(=O)N(CC(=O)Nc3ccc(F)cc3)c3ccccc32)SC1=S	9	3
COc1ccc(F)cc1C(C)NC(=O)NC1CCN(Cc2cccc(C)c2)CC1 (stereo not given)	-5	-6
CCCCSc1nnc2c(n1)OC(c1ccccc1Br)Nc1ccccc1-2 (stereo not given)	4	-1
N#Cc1cccc(NC(=O)Cn2c(=O)cnc3cc(F)c(F)cc32)c1	10	9
CC1(Cc2cc(Cl)ccc2C(F)(F)F)C(=O)Nc2ccc(-c3ccc(F)c(Cl)c3)cc21 (stereo not given)	4	1
O=P(O)(O)C(O)(Cc1cccnc1)P(=O)(O)O	-5	-11
N#CCN1N=C2CCCCCC2C1(O)C(F)(F)F (stereo not given)	-1	-2
Cc1ccc(CNc2ncnc3[nH]ncc23)o1	12	9
COc1ccc(Br)c(C(=O)Nc2cc(C(C)(C)C)nn2-c2ccc(Br)cc2)c1	25	24
COCc1nc(-c2ccc(CN3CCN(C(=O)CCc4ccco4)CC3)cc2)no1	5	18
COc1ccc(N2C(=O)C3C4C=CC(C5CC45)C3C2=O)c([N+](=O)[O-])c1 (stereo not given)	-18	-23
NC(=O)NCC(F)(F)F	-2	-4
CCc1ccc(CN(CC)Cc2ccc(OC)c(O)c2)cc1	-1	-9
CC1=C/C(=N/NC(=O)CN(C)S(=O)(=O)c2ccc(C)cc2)CC1	3	-2
Cc1nc(C(C)C)sc1C(=O)N1CCC2(CC1)c1ccccc1[C@@H](N)[C@@H]2O	4	2
COc1ccc2c(c1)CCCC2=NNc1ncc(Cl)cc1Cl	-12	-19
COc1ccc(C(Nc2ccccn2)c2oc(CO)cc(=O)c2O)cc1 (stereo not given)	17	15
CCc1nc2ccc(C(=O)N(CC)CCN(C)C)cn2c1N(C=O)CCC(C)C	-4	-9
O=C(NC1CC1)c1ccnc(-c2cccc3c2CCNC3)c1	-7	-7
Cc1oc(-c2ccc(Cl)cc2)cc1C(=O)N1CCC(c2cn(C)c3ccccc23)CC1	28	21
Cn1cc(CN2CCC(CNC(=O)c3cnc4ccccc4c3)C2)cn1 (stereo not given)	1	-3
Cc1ccc(N(CCCCN2C(=O)c3ccccc3C2=O)C(=O)c2cc([N+](=O)[O-])cc([N+](=O)[O-])c2)cc1	-7	-12
Oc1ccccc1C1=NOC(O)(C(F)(F)F)C1 (stereo not given)	-4	-4
O=C(Nc1ccc(N2CCCC2)cn1)c1cc(Cl)c2c(c1)OCO2	-21	-22
CCNC(=O)c1cccc(-n2ccc(-c3cccnc3)n2)c1	2	-1
CC(=NN=C(N)N)c1ccc(Cl)cc1Cl	-2	-2
Cc1csc(NC(=O)CSc2nc(=O)n(CC3CCCO3)c3c2CCCC3)n1 (stereo not given)	-4	-11
COc1ccc(-n2c(CCC(=O)NCCCOC(C)C)ccc2-c2ccc(Cl)cc2)cc1	0	0
CCCc1nc(N2CCN(C(=O)C(Cl)c3ccccc3)CC2)c2c(C)nn(-c3ccc(F)cc3)c2n1 (stereo not given)	-6	5
COC(=O)c1c(C)cccc1NS(=O)(=O)c1cc(C(=O)O)cs1	8	5
COc1ccc(CC2CN(C3CCN(Cc4ccco4)CC3)CCO2)cc1 (stereo not given)	10	7
CN(C)S(=O)(=O)c1ccc2c(c1)CCCN2C(=O)CCl	0	0
COc1ccc(C(CC(=O)NCc2ccon2)c2ccccc2)cc1 (stereo not given)	20	6
CCn1c(C)nnc1S(=O)(=O)Cc1noc(CC(C)C)n1	4	5
CCC(C)n1c(O)c(C=NNCCN(CC)CC)c(=O)[nH]c1=S (stereo not given)	11	29
CC(OC(=O)c1cc(-c2ccco2)n[nH]1)c1ccc(F)c(F)c1 (stereo not given)	1	0
COc1cc(S(=O)(=O)NCc2ccc(C)cc2)c(OC)cc1Cl	5	1
CC(C)c1cc(Cn2ccnc2C2CCOC2)on1 (stereo not given)	-1	-5
Cc1noc(-c2cccc(F)c2)c1C(=O)NCc1cccs1	0	8
CCOCCOC(=O)C1=C(C)N(C)C(=O)NC1c1ccccc1I (stereo not given)	10	6
CCOCCCNC(=O)c1cc(NC(=O)Nc2ccc(OC)cc2)ccc1N1CCC(Cc2ccccc2)CC1	0	7
CN(Cc1cccc2ncccc12)CC1CCCN(CCc2ccc(F)cc2)C1 (stereo not given)	1	-1
C=CCSc1nnc2c(n1)OC(c1ccncc1)Nc1ccccc1-2 (stereo not given)	11	8
COC(=O)c1cc2sccc2n1Cc1cc(=O)n2ccccc2n1	7	7
C=CCOc1ccc(C=C(C#N)C(=O)c2ccc(OC)cc2)cc1	2	2

Entries above with an NH in an aromatic ring (13):
SMILES	NPYLR7 agonist	NPYLR7 agonist max-min
Cc1ccc(C(CC(=O)N2CCN(c3cccc(C(F)(F)F)c3)CC2)c2c[nH]c3ccccc23)c(C)c1 (stereo not given)	6	18
Cc1ccc(NC(=O)c2cc3c(C(F)(F)F)cc(=O)[nH]c3o2)c(Cl)c1	4	1
S=C(Nc1cccc(Cl)c1)Nc1ccc2cn[nH]c2c1	-3	-13
COc1c[nH]c(C(=O)N[C@@H]2CC[C@@H](N)C2)cc1=O	-4	-7
CCSc1nc2c(c(=O)[nH]1)C(C(C)C)C(C#N)C(=N)O2 (stereo not given)	3	1
CN(Cc1cc(C(C)(C)C)n[nH]1)C(=O)c1cn2c3c(cccc3c1=O)CC2	10	6
c1coc(-c2ncc(C3NCCc4[nH]cnc43)cn2)c1 (stereo not given)	14	10
CCc1c(C)nc(-n2nc(C)cc2NC(=O)c2ccc(C(F)(F)F)cc2)[nH]c1=O	10	7
COc1cccc(N=Nc2c(C)[nH]n(-c3nc(-c4cccc([N+](=O)[O-])c4)cs3)c2=O)c1	3	-2
Cc1cccc(CSc2nc(=O)[nH]c3c2CCC3)c1	-3	-10
Cc1ccc(CNc2ncnc3[nH]ncc23)o1	12	9
CCC(C)n1c(O)c(C=NNCCN(CC)CC)c(=O)[nH]c1=S (stereo not given)	11	29
CC(OC(=O)c1cc(-c2ccco2)n[nH]1)c1ccc(F)c(F)c1 (stereo not given)	1	0

This is a subset. The share of hits here may be higher or lower than overall.
